D2 PAM: Beta-Arrestin HTS for Positive Allosteric Modulators of the Human D2 Dopamine Receptor: Potentiators; actives 0.23% (n = 360,000); D(2) dopamine receptor (Homo sapiens), P14416; DiscoveRx D2 beta-arrestin cells, luminescence, 90 min; 100% = 57 uM dopamine signal; potentiation, % (no concentration beside the values); active = potentiation of 50% or more; inconclusive = 30% to 50%; inactive = 30% or less;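 also: compound concentration not given in the record; tested on top of an EC20 dose of dopamine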
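PathHunter beta-arrestin assay in DiscoveRx D2 cells. Compounds were added with an EC20 of dopamine (50 nM final) for 90 min at 37 deg C. Luminescence was read 1 h after detection reagent, with 57 uM dopamine as the EC100 control.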
Six1-Eya2 blk: qHTS Assay for Inhibitors of the Six1/Eya2 Interaction; actives 0.56% (n = 360,000); AID 651725, 2012; Homeobox protein SIX1 (Homo sapiens) + Protein phosphatase EYA2 (Homo sapiens), …; AlphaScreen GST-Six1/His-Eya2 binding, biochemical; hits give low values; control for the full effect not named in the record; activity change, % (test concentration not listed); in the data active = activity change below about -65%; inconclusive = about -30% to -65%; inactive = above about -30%; also: % is scaled to controls: 0 for no effect and ±100 for the full control effect; compound concentration not given in the record
Target sequence (O00167 whole entry, looked up): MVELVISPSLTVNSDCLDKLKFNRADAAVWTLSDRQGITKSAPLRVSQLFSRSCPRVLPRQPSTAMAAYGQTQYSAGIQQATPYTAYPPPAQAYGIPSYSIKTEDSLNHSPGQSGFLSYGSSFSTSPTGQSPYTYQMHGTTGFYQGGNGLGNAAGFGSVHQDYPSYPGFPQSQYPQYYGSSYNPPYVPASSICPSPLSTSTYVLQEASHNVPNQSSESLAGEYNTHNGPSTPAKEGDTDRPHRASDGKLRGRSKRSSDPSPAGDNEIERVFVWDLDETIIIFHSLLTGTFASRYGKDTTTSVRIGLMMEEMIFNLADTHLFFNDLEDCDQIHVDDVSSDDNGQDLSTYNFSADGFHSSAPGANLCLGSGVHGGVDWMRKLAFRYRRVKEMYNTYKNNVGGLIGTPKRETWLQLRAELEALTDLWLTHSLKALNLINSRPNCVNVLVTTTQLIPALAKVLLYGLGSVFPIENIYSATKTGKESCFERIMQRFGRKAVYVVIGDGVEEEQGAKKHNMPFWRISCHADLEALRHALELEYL
Target sequence (Q15475 whole entry, looked up): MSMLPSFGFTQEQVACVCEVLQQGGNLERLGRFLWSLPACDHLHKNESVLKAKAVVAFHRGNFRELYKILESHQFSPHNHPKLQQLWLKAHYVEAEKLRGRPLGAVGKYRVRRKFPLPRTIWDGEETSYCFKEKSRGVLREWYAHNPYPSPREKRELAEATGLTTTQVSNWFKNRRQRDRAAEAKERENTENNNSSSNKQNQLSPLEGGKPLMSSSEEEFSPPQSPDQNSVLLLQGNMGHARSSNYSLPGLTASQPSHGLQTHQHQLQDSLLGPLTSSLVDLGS
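Homogeneous AlphaScreen proximity assay pairing GST-Six1 with His-tagged Eya2 (added as 5X mix: 250 nM and 500 nM) in 50 mM Tris pH 8.0, 300 mM NaCl, 1 mM TCEP. Glutathione donor and nickel acceptor beads; 1 h, 37 °C, dark.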
D2 ag: Beta-Arrestin HTS for Positive Allosteric Modulators of the Human D2 Dopamine Receptor: Agonists. D(2) dopamine receptor (Homo sapiens), P14416. DiscoveRx PathHunter D2 beta-arrestin, luminescence, 90 min; 100% = 57 uM dopamine signal. activation, % (no concentration beside the values). actives 0.084% (n = 360,000); in the data active = activation above about 40%; inconclusive = about 15% to 40%; inactive = below about 15%; also: compound concentration not given in the record; the text of the record calls up to 30% inactive
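DiscoveRx PathHunter D2 beta-arrestin cells (2,100/well) attached overnight, then compound-stimulated 90 min at 37 C in HBSS/10 mM HEPES/0.1% Tween-20 buffer; beta-galactosidase complementation read by luminescence after 1 h at ambient temperature. Dopamine 57 uM final (EC100) as control.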
TRPML1 ag: qHTS for Agonists of the Human Mucolipin Transient Receptor Potential 1 (TRPML1); Mucolipin-1 (Homo sapiens), Q9GZU1; TRPML1-expressing cells, Ca2+ dye fluorescence, FDSS; host cell line not named in the record; reference of the full effect not given here; activation, % (no concentration beside the values); actives 0.12% (n = 410,000); in the data active = activation above about 50%; inconclusive = about 30% to 50%; inactive = below about 30%; also: 0% is about no effect; the text of the record puts the active cut at 80%
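Calcium fluorescence on an FDSS kinetic reader gave the read-out. Tet-induced TRPML1-DL cells were plated overnight, dye-loaded (Ca8 with quencher, 45-90 min, room temperature, dark), then read 110 s after compound addition, and again 110 s after 4uM final 54-4 (EC80).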
TRPML1 inh: qHTS for Inhibitors of the Human Mucolipin Transient Receptor Potential 1 (TRPML1); Mucolipin-1 (Homo sapiens), Q9GZU1; TRPML1-inducible cells, Ca2+ dye fluorescence, FDSS; hits give low values; inhibition of EC80 agonist-evoked calcium signal; activity change, negative = inhibition, % (no concentration beside the values); actives 0.02% (n = 390,000); in the data active means activity change below about -50%; inconclusive means about -30% to -50%; inactive means above about -30%;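 also: stimulus is agonist 54-4 at its EC80 concentration; % is scaled to controls: 0 for no effect and ±100 for the full control effect; compound concentration not given in the record; the text of the record puts the active cut at -80%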
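Tet-induced TRPML1-DL cells loaded with Ca8 no-wash calcium dye were read kinetically on FDSS. Compound addition was followed by EC80 agonist 54-4 (4 uM final); inhibition was read over 110 s.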
PINK1 expr mod: A Quantitative High throughput Screen to Identify Chemical Modulators of PINK1 Expression; AID 624263, 2012; actives 0.2% (n = 410,000); Potency, µM (titrated, usually from 76.6 µM), inactives show at the top dose activation (PINK1 increase), hits mostly activators; PINK1 immunofluorescence, high-content cytometry, 24 h; active = well fitted activation curve with a large enough effect; inconclusive = small, poorly fitted or top-dose-only effect; inactive = flat fitted curve, though single readings scatter; cell line not stated here;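 also: potency is read from the fitted curve at half-maximal effect; % of control where 0% means no effect; nearly all actives have a fitted effect of over 65% in size; a mitochondrial uncoupler was the plate control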
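A stable cell line was treated with compounds at 5 concentrations for 24 hours, with CCCP as control. PINK1 levels and mitochondrial localization were measured by immunofluorescence with mitochondrial, cell and nuclear markers after fixation, read by laser-scanning cytometry.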
The depositor's hits bear a star; ? = inconclusive; . = no result given; & = joins results of further samples; [ ] = another dose, or the depositor's remark. The order is random. Share with any hit: about 1%.

Values run as follows: D2 PAM	Six1-Eya2 blk	D2 ag	TRPML1 ag	TRPML1 inh	PINK1 expr mod
#1 O=C(CSc1nc(Cc2ccccc2)nc2ccccc12)Nc1ccc2c(c1)OCCO2
 : 2	-8	-2.7	-0.5	8	29%[38.3 µM]
#2 COc1ccccc1NC(=S)NCC1CCC(CNC(=S)Nc2ccccc2OC)CC1 (configuration not stated)
 : -6	-13	-4.9	-0.7	6	8.7%
#3 Cc1ccccc1-n1c(=O)cc(N2CCN(Cc3ccccc3)CC2)[nH]c1=O
 : -2	4	-1.2	-0.1	4	2.0%
#4 Cc1cc(Oc2ccc(Br)cc2)nc(SCC(=O)c2ccccc2)n1
 : -6	5	-0.8	3.1	34	7.6%
#5 COc1cccc(NC(=O)CN(C)C(=O)c2cccc(S(=O)(=O)N3CCN(c4ccc(F)cc4)CC3)c2)c1
 : -17	-16	-1.8	-0.4	26	0.8%
#6 Cc1ccc(N=c2c([N+](=O)[O-])nn(-c3ccc4c(c3)OCCO4)n2O)cc1F
 : 58*	-5	?	-0.3	-11	9.2%
#7 O=S(=O)(c1ccc(Br)s1)N1CCN(CCc2ccccc2)CC1
 : -12	-10	-7.8	1.1	-2	2.7%
#8 CS(=O)(=O)Nc1cccc(NC(=O)C2Cc3c(-c4ccco4)ccnc3O2)c1 (configuration not stated)
 : -9	2	6.4	-0.5	.	-0.5%
#9 COc1ccc(-c2nnc3n2CCCCC3)cc1OC
 : 0	7	-4.0	0.7	17	-1.6%
#10 CS(=O)(=O)N(CC(=O)Nc1ccc2c(c1)OCCO2)c1ccc2c(c1)OCO2
 : -13	0	-4.1	1.0	15	1.4%
#11 CCOC(=O)C(NC(C)=O)(Nc1cccc(F)c1)C(F)(F)F (configuration not stated)
 : 8	4	-5.1	-0.1	22	-1.0%
#12 CC(C)c1csc(CN2CCC(N3CCC(C(=O)NCC4CCCO4)CC3)CC2)n1 (configuration not stated)
 : -10	6	-5.6	0.5	7	0.1%
#13 CC(=O)Nc1ccc(C2Sc3ccccc3NC3=C2C(=O)c2ccccc23)cc1 (configuration not stated)
 : .	.	.	0.0	5	-0.3%
#14 CC1(C)CC2CC(C)(CN2c2ncnc3ccccc23)C1 (configuration not stated)
 : -2	-7	1.7	-0.7	-6	-2.1%[38.3 µM]
#15 S=c1[nH]ccn1CCc1ccccc1
 : 9	5	14	0.1	9	1.5%
#16 Cc1cccc(CNC(=O)CS(=O)(=O)c2cccc3nsnc23)c1
 : .	.	.	1.1	-14	-5.1%
#17 CCOc1ccc(NS(=O)(=O)c2ccc(OC)c(C)c2)cc1
 : 0	2	1.0	2.0	0	3.1%[38.3 µM]
#18 O=C(CSc1nccn1-c1ncc(C(F)(F)F)cc1Cl)c1ccc(Cl)cc1
 : -1	-2	-1.9	-0.9	3	0.2%
#19 CN(C)S(=O)(=O)c1cccc(NC(=S)N/N=C/c2ccco2)c1
 : -16	-20	-1.9	0.9	-9	0.6%
#20 Cc1onc(-c2ccccc2)c1C(=O)N1CCN(S(=O)(=O)c2ccccc2Br)CC1
 : 2	0	-1.5	1.5	16	0.1%
#21 Cc1nn2c3ccccc3nc2c2ccccc12
 : -5	-27	-3.2	0.5	-8	-1.1%
#22 CN=C(Nc1cccc(S(=O)(=O)N2CCOCC2)c1)c1ccccc1
 : 2	4	2.5	0.5	4	0.3%
#23 CC(Cc1cccs1)NC(=S)Nc1ccc(Cl)cc1 (configuration not stated)
 : -3	-3	-0.3	0.6	30	?
#24 CCc1ccc(CSc2nc(-c3ccccc3F)nc3c2Cc2c(CO)cnc(C)c2O3)cc1
 : .	.	.	0.8	-9	-0.2%
#25 CCN(CC)CCC(c1ccc(OC)cc1)c1c(O)cc(OC)cc1OC (configuration not stated)
 : -20	-5	-3.0	0.9&-0.4	-7&11	-0.4%
#26 CCCCn1cnc2c(SCc3ccccc3)nc(N)nc21
 : -3	4	-1.1	3.1	17	2.3%
#27 CCOC(=O)N1CCC(NS(=O)(=O)c2ccc(NC(C)=O)c(Cl)c2)CC1
 : -34	4	0.2	-0.4	17	0.6%
#28 Cc1cccc(C)c1NC(=O)COC(=O)CNC(=O)C1CCCCC1
 : 10	5	-1.4	-0.8	-7	1.0%
#29 COc1ccc(NC(=O)c2sc3nc(N4CCCC4)c4c(c3c2N)CC(C)(C)OC4)cc1
 : -3	-1	2.2	3.5	9	-1.2%
#30 Cc1ccc(NC(=O)c2sc3ncn(CC(=O)N4CCOCC4)c(=O)c3c2C)c(Br)c1
 : 12	1	-1.7	-0.4	24	3.7%
#31 COc1ccc(-c2oc3ccc(-c4cc(OC)c(OC)c(OC)c4)cc3c2-c2ccc(OC)cc2)cc1
 : -2	-1	-8.6	-0.6	10	-1.1%
#32 Cc1cccc(-n2nnnc2SCC(=O)NCCN2C(=O)CSC2=O)c1
 : -6	5	0.1	1.3	-3	0.2%
#33 Cc1ccc(CN2[C@@H](CC(C)C)COCCS2(=O)=O)cc1
 : -10	6	-3.2	-0.3	-2	3.2%
#34 CCOCCCNC(=O)c1c[nH]c2cc(C)ccc2c1=O
 : 4	-3	0.9	0.4	11	-0.3%
#35 Cn1c(=O)c2c(ncn2CC(=O)OCC(=O)NCc2ccccc2Cl)n(C)c1=O
 : -1	2	-4.7	0.6	-9	0.0%
#36 O=C1CCCN1CCCNS(=O)(=O)c1ccccc1
 : 0	2	-3.8	-0.6	9	-0.2%
#37 CN(C(=O)c1ccc2c(Cl)c3c(nc2c1)CCC3)c1ccccc1
 : -3	3	2.5	-0.1	8	2.1%
#38 OC(COc1ccc(OCC(O)CN2CCN(Cc3ccccc3)CC2)cc1)CN1CCN(Cc2ccccc2)CC1 (configuration not stated)
 : -16	5	1.0	0.4	5	7.7%
#39 O=C(Nc1cccc(Cl)c1)Nc1nnc([C@H]2C[C@H](O)[C@@H](CO)O2)s1
 : 0	-5	-3.4	-0.5	.	-0.6%
#40 Cc1ccc(-c2nc(CCNC(=O)C(=O)Nc3c(C)cccc3C)cs2)cc1
 : .	.	.	3.8	24	5.5%
#41 O=C(NC1CCCCC1)C(=O)c1c[nH]c2ccccc12
 : -6	13	-3.1	-0.7	5	6.9%
#42 CCCc1c(O)nc(SCC(=O)NCc2ccco2)[nH]c1=O
 : -2	-1	-0.6	0.0	17	1.2%
#43 CCc1ccc([C@H]2[C@@H]3C(=O)C[C@@H]4C(=O)NC(=O)[C@@H]4[C@@H]3CN2S(=O)(=O)c2ccc(C)cc2)cc1
 : -8	10	-4.0	0.1	.	2.6%
#44 CCOC(=O)C1=C(COC(=O)c2cc(S(=O)(=O)N3CCOCC3)ccc2F)NC(=O)NC1C (configuration not stated)
 : 9	6	5.4	1.7	32	4.8%
#45 CN1CCN(C(=O)c2cccn(Cc3ccc(C(F)(F)F)cc3)c2=O)CC1
 : -26	-1	0.8	-0.1	0	2.8%
#46 CCC1(C)Cc2nc3[nH]c(=S)n(-c4ccc(C)cc4)c(=O)c3cc2CO1 (configuration not stated)
 : -5	-4	2.0	0.2	-9	4.8%
#47 CC(C)(C)Nc1nc(OCC(F)(F)F)nc(OCC(F)(F)F)n1
 : -8	2	-0.3	-0.8	5	1.7%
#48 CC(C)C1Cc2c(sc3ncnc(NN)c23)CO1 (configuration not stated)
 : -7	-28	-2.3	0.1	-10	2.6%
#49 Cc1c(C(=O)Nc2c(C)n(C)n(-c3ccccc3)c2=O)oc2ccccc12
 : -3	7	-3.1	-0.7	-10	2.0%
#50 O=C(N1CCOCC1)N1CCN(S(=O)(=O)c2ccc(Cl)cc2)CC1
 : -19	-3	-3.7	-0.6	10	1.6%
#51 Cc1cc(C)c2nc(N(Cc3cccnc3)C(=O)c3ccc(S(=O)(=O)N(C)C)cc3)sc2c1
 : .	.	.	0.2	-3	1.3%
#52 O=C1NC(=S)N/C1=C\c1ccc(N2CCOCC2)cc1
 : 0	-6	-4.1	0.2	-7	4.1%
#53 CCNC(=O)C1(C)CCN1CCC(=O)c1ccc(Br)cc1 (configuration not stated)
 : -3	-5	-4.1	-0.4	.	-0.7%
#54 CC(=O)Nc1ccccc1NC(=O)c1ccc2c(c1)OCO2
 : -34	12	-4.5	-0.2	1	-1.8%
#55 O=C(NCc1ccco1)c1sc2cccc(F)c2c1Cl
 : 2	0	0.1	-0.4	2	2.2%[38.3 µM]
#56 COc1cc(-n2c(C)nc3cc(C(=O)NCC4CCCO4)ccc32)cc(OC)c1OC (configuration not stated)
 : -7	1	-3.8	-0.1	-11	0.1%
#57 O=C(Nc1cccc(-c2cnc3ccccc3n2)c1)c1ccco1
 : 3	-23	-6.5	0.4	-2	-1.3%
#58 O=C(Nc1ccc(OCC(=O)N2CCOCC2)cc1)c1ccccc1Cl
 : -20	10	-0.5	0.1	10	2.1%
#59 CC1CC1C(=O)Nc1nc(-c2ccc(Cl)s2)cs1 (configuration not stated)
 : 2	-26	0.7	1.0	3	12%
#60 CC1CCN(CCCNC(=O)C2CCCN(c3ncnc4c3nc3n4CCCCC3)C2)CC1 (configuration not stated)
 : -10	0	1.5	-0.4	-3	-1.6%

61) COc1ccccc1NC(=O)c1c(C)cc(C)nc1SCC(=O)Nc1cccc(C)c1
62) CN(C)c1nc(C(F)(F)F)cc(=O)[nH]1
63) Cc1ccc(NC2CC(=O)N(c3ccc(C)cc3)C2=O)cc1 (configuration not stated)
64) O=C(NC(=S)NNC(=O)c1ccccc1O)c1ccccc1
Assay by compound	61	62	63	64
D2 PAM	.	0	-5	-11
Six1-Eya2 blk	.	10	-7	-75*
D2 ag	.	-1.6	-3.8	-11
TRPML1 ag	3.0	0.1	-1.4	1.4
TRPML1 inh	5	-2	3	-27
PINK1 expr mod	0.7%	0.1%	0.4%	-1.8%

Compound activity (PubChem BioAssay)
